High-throughput results as filed in PubChem.
A1 inh – inhibitors of the anti-apoptotic protein A1, read as caspase activation | 330,000 compounds, 0.066% hits | caspase activation, % (test concentration not listed) | MEF A1-2A-BIM cells, Caspase-Glo 3/7 luminescence, 3 h; percent of clofoctol response, vehicle zero;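 active = over half of replicate activation scores above 10%, or exactly half above 10 with the replicate mean above 10; inconclusive = replicate mean below 10 yet half the replicates above 10; inactive = over half of replicates below 10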;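 note: wells of about 30 µL received 50 nL stock; many hits fall short of the cut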
RanGTP-Impb inh – inhibitors of RanGTP-importin-beta interaction, primary screen, biochemical, FRET, CFP-Ran, YFP-importin-beta, homogeneous; AID 2216; cell-free CFP-Ran/YFP-importin-beta FRET ratio; inhibition, % (concentration not given with the values); 300,000 compounds, 1.1% hits;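 active = most replicates above 15%; inconclusive = exactly half above 15%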;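 note: 0% = DMSO wells and 100% = Ran loaded with GDP instead of GTP; wells of about 40 µL received 100 nL stock; the first replicate is given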
Calb FLC – affects C. albicans growth with fluconazole. C. albicans CaCi-2 (fluconazole-resistant clinical isolate) + fluconazole, Alamar Blue growth, 48 h. growth inhibition, % (no concentration beside the values). 300,000 compounds, 0.57% hits;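 active = most replicates above 75%; inconclusive = exactly half above 75%; inactive = most below 75%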;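 note: all wells also contain fluconazole at 8 µg/ml as a sub-toxic cotreatment; 0% = median of DMSO wells and 100% = median of geldanamycin control wells; wells of about 8 µL received 7.5 nL stock; the first replicate is given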
T cruzi repl – T. cruzi replication inhibition. AID 1885. T. cruzi beta-gal in NIH3T3, luminescence, 90 h. inhibition, % (no concentration beside the values). 300,000 compounds, 1.4% hits;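 active = mean inhibition across valid replicates above about 55%, limit read from the data; inconclusive = mean below that limit but half or more replicates reach it; inactive = mean below it, under half of replicates reach it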;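 note: signal also drops with host cell toxicity which is not excluded here; 0% = plate median of DMSO wells and 100% = zero luminescence signal; higher percent means less beta-gal luminescence so fewer parasites; stock transfer was 50 nL into about 50 µL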
LANA-H2A inh – blocks KSHV LANA binding to histone H2A/H2B. Q9QR71. cell-free LANA-H2A/H2B peptide, fluorescence polarization. inhibition, % (no concentration beside the values). 320,000 compounds, 0.6% hits; in the data active = inhibition mostly above about 10%, no sharp cut-off; inactive = mostly below about 6.7%;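 note: stock transfer was 7.5 nL into about 10 µL; 0% = median of vehicle wells and 100% = median of positive control wells; one replicate is shown; the record names a cut of 25% in any replicate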
Beta cell apopt – beta cell apoptosis inhibition; INS-1E cytokine-induced death, ATP luminescence, 48 h; percent of positive-control rescue, neutral wells zero; protection from apoptosis, % (test concentration not listed); 300,000 compounds, 0.8% hits;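 active = all replicates at 75% or more, or half of them and the mean; inconclusive = half reach 75% but not the mean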;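 note: 0% = cytokine-treated negative control wells and 100% = positive control rescue; higher means more ATP so stronger rescue from cytokine killing; wells of about 40 µL received 100 nL stock; the first replicate is given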
Vif A3G – inhibitors of Vif binding to APOBEC3G peptide, primary screen, biochemical, TR-FRET, GST-Vif 1-94, biotin-A3G peptide, dose response retest (AID 1117319); inhibition, %; hits with a dose series show IC50 in µM; TR-FRET GST-Vif / biotin-A3G peptide binding; higher % means a stronger effect; test concentration not given here; strong numbers were not always called active; 260,000 compounds, 0.57% hits;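 active = above the screen mean plus three standard deviations and confirmed in dose response; inconclusive = results disagree or hit not tested in dose response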;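 note: Vif residues 1-94 fused to GST binding biotinylated APOBEC3G peptide 110-148; 0% = full assay without inhibitor and 100% = GST in place of GST-Vif; retest series ran down from 100 µM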
AF4-AF9 inh – blocks AF4 peptide binding to human AF9. 350,000 compounds, 0.47% hits. inhibition, % at 10 µM. AID 651704. AlphaScreen, biotin-AF4 peptide binding to FLAG-AF9;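 active = every replicate reaching a set inhibition limit, whatever the replicate mean, cut at about 25% in these data; inconclusive = mean inhibition reaches that limit but some replicates miss it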;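 note: 0% = plate neutral control median and 100% = total signal loss; the record names both 10 and 1 µM as test concentration; the first replicate is given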
Target sequence (P42568 whole entry, looked up): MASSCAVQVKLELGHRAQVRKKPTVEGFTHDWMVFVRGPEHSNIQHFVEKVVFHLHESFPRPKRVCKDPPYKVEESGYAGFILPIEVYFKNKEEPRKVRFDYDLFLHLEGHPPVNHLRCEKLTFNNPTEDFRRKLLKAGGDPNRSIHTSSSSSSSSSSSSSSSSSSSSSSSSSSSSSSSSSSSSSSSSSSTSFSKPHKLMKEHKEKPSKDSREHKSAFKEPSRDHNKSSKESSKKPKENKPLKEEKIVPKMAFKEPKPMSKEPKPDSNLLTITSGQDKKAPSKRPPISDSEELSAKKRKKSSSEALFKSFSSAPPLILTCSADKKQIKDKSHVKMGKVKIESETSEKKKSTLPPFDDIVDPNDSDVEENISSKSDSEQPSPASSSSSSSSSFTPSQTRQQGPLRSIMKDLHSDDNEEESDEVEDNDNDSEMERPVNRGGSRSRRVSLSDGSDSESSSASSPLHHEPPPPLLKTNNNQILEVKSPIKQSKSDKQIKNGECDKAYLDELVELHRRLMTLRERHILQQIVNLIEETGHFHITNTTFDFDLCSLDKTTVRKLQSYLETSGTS
An asterisk follows results filed as active; ? = inconclusive; · = no result given; & = joins results of further samples.

SMILES	A1 inh	RanGTP-Impb inh	Calb FLC	T cruzi repl	LANA-H2A inh	Beta cell apopt	Vif A3G	AF4-AF9 inh
O=c1c2ccccc2nc(-c2ccccc2)n1-c1ccncc1	0.1	3.6	17	-5	5.4	-8	5%	·
O=C(NCCN1CCOCC1)c1ccc(Cl)nc1	0.0	-1.2	0	-11	-2.5	-4	·	8.8
CC(C)CCP(=O)(O)c1ccccc1	0.2	·	-18	7	-2.1	-1	4%	2.8
CC(=O)Cc1c[nH]c2ccccc12	0.4	-0.1	-10	-6	0.2	·	-2%	·
O=C(OCC1O[C@@H](OC(=O)c2cc(O)c(O)c(O)c2)[C@@H](OC(=O)c2cc(O)c(O)c(O)c2)[C@@H](OC(=O)c2cc(O)c(O)c(O)c2)[C@@H]1OC(=O)c1cc(O)c(O)c(O)c1)c1cc(O)c(O)c(O)c1 (some centres undefined)	1.0	·	·	·	-0.7	3	<0.2µM*	·
Cc1ccccc1-n1c(CNc2ccccc2)nc2ccccc2c1=O	0.6	2.5	0	-5	2.3	·	·	0.4
O=c1c2ccccc2nc(-c2ccco2)n1-c1cccnc1	0.1	6.1	23	-2	-3.7	·	-5%	·
CCCCCCn1c(O)c(C=NCCCn2ccnc2)c(=O)[nH]c1=O	-0.4	-4.0	2	-13	-2.2	-2	11%	·
COc1ccc(N=Cc2c(O)n(CC3CCCO3)c(=O)[nH]c2=O)cc1 (centres undefined)	-0.6	-11	-5	-5	-0.9	-2	5%	-3.4
CN1C(=O)C(=Cc2cn(CC(=O)N3CCCC3)c3ccccc23)C(=O)N(C)C1=O	0.0	-3.4	2	-6	12	-3	·	-2.2
CN1C(=O)C(=Cc2ccccc2OCc2ccccc2Cl)C(=O)N(C)C1=O	0.4	-1.3	19	-4	-1.3	-9	17%	·
CC(=NCCc1ccccc1)c1c(O)n(C)c(=O)n(C)c1=O	0.7	0.4	-21	-6	0.3	3	-1%	-11
Cc1ccc2nc3c(cc2c1)CC1(C(=O)N(C)C(=O)N(C)C1=O)C1COCCN31 (centres undefined)	0.5	-0.8	-20	8	0.5	-10	9%	·
CCCC(C)C1(CC)C(=O)NC(=Nc2ccc(F)cc2)NC1=O (centres undefined)	-0.7	1.8	-1	-7	1.8	-2	2%	·
CC1CCC(C(C)C)C(OP(N)(=O)c2ccccc2)C1 (centres undefined)	-0.7	-2.4	?	-26	0.3	-8	26%	·
c1ccc(CNCCc2c[nH]c3ccccc23)cc1	-0.3	-8.1	-7	3	-1.4	·	13%	4.6
COc1ccc(CN2CCN(C(=O)Cc3ccccc3)CC2)c(OC)c1	-0.3	3.7	1	-2	7.6	0	-1%	·
CCC(=NC1CC1)c1c(O)n(-c2ccc(OC)cc2)c(=O)[nH]c1=O	1.1	-3.9	-10	-8	-0.5	0	4%	·
CN1CCN(c2nc3ccccc3o2)CC1	0.3	2.1	1	3	-3.4	-1	11%	-3.1
Cc1ccc(S(=O)(=O)c2nc(-c3ccccc3Cl)oc2N(C)C2CCN(C)CC2)cc1	0.7	·	·	·	2.4	7	·	20
Cn1ccnc1P(=S)(c1nccn1C)N1CCOCC1	1.1	0.9	-8	-24	3.0	-4	3%	·
COc1ccc(C2NCc3ccc4c(c3-n3cccc32)OCO4)cc1OC (centres undefined)	0.1	-2.4	-3	22	0.2	-1	10%	·
Cc1ccc(OCCSC2=NN2c2cc(C)nc(N)n2)cc1	-0.7	-3.0	-14	-4	4.2	1	-12%	-2.5
Cc1ccsc1C(=O)C1CCCN(Cc2cccn2-c2ccccn2)C1 (centres undefined)	0.4	3.1	12	8	0.2	-5	-2%	6.4
CC(CO)(CO)N=Cc1c(O)n(-c2cccc3ccccc23)c(=O)[nH]c1=O	-0.8	6.4	-4	-2	-5.1	-2	-3%	·
COc1ccccc1CCNCc1cc2c(cc1[N+](=O)[O-])OCO2	0.3	-1.8	-10	3	1.7	-6	?	·
COC(=O)C1=C(c2ccc(F)cc2OCc2ccccc2)C[C@@H]2CC[C@H]1N2C(=O)NCc1cccc(F)c1	0.8	·	·	·	4.5	6	·	5.3
COC(=O)C1=C(c2ccc3ccccc3c2)C[C@@H]2CC[C@H]1N2C(=O)N1CCCCC1	-0.5	·	·	·	-2.1	1	·	5.8
CCc1ccc2c(CN3CC=C(c4ccccc4)CC3)cc(=O)oc2c1	0.5	-1.0	-11	4	-2.9	3	·	4.7
O=S1(=O)N(CCN2CC=C(c3c[nH]c4cc(F)ccc34)CC2)c2cccc3c2N1CCC3	-0.6	·	·	·	3.1	-10	·	3.2
CCCn1c(C(=O)c2ccccc2OC)nc2ccccc21	-0.9	-2.6	-7	3	2.8	3	12%	·
CCC(=O)c1cn(Cc2ccc(C#N)cc2)c2ccccc12	-1.2	6.7	25	21	2.1	5	3%	·
Oc1cc2c(cc1CN1CCN(c3ccccc3F)CC1)OCO2	0.3	-0.5	4	-15	0.2	0	·	4.4
Cn1cc(C(=O)NCc2ccccc2)c2ccccc21	-1.0	-0.7	-8	-7	·	-4	2%	-1.7
O=c1[nH]c(=O)n(Cc2ccco2)c(O)c1C=NCCCn1ccnc1	0.2	3.0	-2	-6	-1.4	-1	78%	·
COc1cc2c(C(=O)N3CCN(C)CC3)c(C)n(C)c2cc1Br	0.1	-6.9	2	-1	2.7	-4	17%	·
CC1CCCCN1Cc1cccnc1 (centres undefined)	0.1	?	-12	-9	-1.6	-2	18%	-1.5
O=c1[nH]c(=O)n(C2CCCCC2)c(O)c1C=NCCCn1ccnc1	-0.6	-1.9	1	·	3.8	-3	28%	·
COc1ccc2c(C)c(CC(=O)N3C[C@H]4C[C@@H](C3)c3cccc(=O)n3C4)c(=O)oc2c1	-0.3	2.6	-5	8	0.0	4	·	-0.9
COC1CCCCC1NCCc1ccccc1 (centres undefined)	0.1	5.4	2	2	6.9	-1	-2%	0.2
CCOc1cccc(CNC2CN3CCC2CC3)c1 (centres undefined)	-0.1	-1.4	-8	7	-2.4	-2	8%	-0.9
Cc1cc(OC(C)C(=O)NCC2CCC(C(=O)O)CC2)c2c3c(c(=O)oc2c1)CCC3 (centres undefined)	-0.2	-4.9	7	-1	1.4	-7	8%	3.1
CCOC(=O)c1cccc([P+](=O)O)c1	0.8	-2.1	3	-5	1.1	-3	33%	·
COc1cc(CC2(CCc3ccncc3)C(=O)N(C)C(=O)N(C)C2=O)cc(OC)c1OC	-0.1	6.4	1	7	3.1	5	3%	0.1
COc1ccccc1/C=C1/C(=N/O)C2CCN1CC2	1.5	-1.2	-4	-7	0.6	-7	13%	·
CCN(CC)CCOC(=O)C(O)(c1ccccc1)c1ccccc1	0.5	·	·	·	-6.1&1.0	4	7%	-3.7
CC(C)CCNC(=O)CN1C(=O)CN=C(c2ccccc2)c2ccccc21	-0.5	0.7	-6	3	2.6	-6	3%	-4.4
Cc1cc(OCc2ccc([N+](=O)[O-])cc2)c2c3c(c(=O)oc2c1)CCCC3	0.5	-1.5	12	5	·	2	-1%	1.6
CCCCn1c(O)c(C=NCc2ccc3c(c2)OCO3)c(=O)[nH]c1=O	-0.7	2.9	-10	6	-4.4	-4	13%	-3.5
Cc1cc(C)c(C(=O)N2CCC3(CC2)OCCO3)c(C)c1	0.0	4.9	-11	-5	28*	-6	·	2.7
CN(C)CC1CSCCC1(O)c1ccc(Cl)cc1 (centres undefined)	0.1	-0.5	1	1	2.8	-7	4%	·
C/C(=N\N1CCCCC1c1cccnc1)c1c(O)n(C2CCCCC2)c(=S)[nH]c1=O (centres undefined)	0.5	1.4	26	38	-2.9	-7	·	·
CCOc1cc(C=C2C(=O)NC(=O)NC2=O)ccc1OS(=O)(=O)c1ccccc1	0.7	-0.9	-14	-8	-2.6	-3	26%	·
COc1ccc(/C=C2/C(=O)NC(=O)N(c3ccc(C)c(C)c3)C2=O)cc1CN1C(=O)c2ccccc2C1=O	0.2	1.3	3	-16	0.9	2	·	·
COc1ccc(/C=C2/C(=O)NC(=O)N(c3ccccc3)C2=O)cc1CN1C(=O)c2ccccc2C1=O	2.0	0.9	2	11	-9.1	3	?	·
CCCCCCn1c(O)c(C=NCCN2CCOCC2)c(=O)[nH]c1=O	0.9	1.3	-10	4	-0.5	-2	·	-0.1
O=c1[nH]c(=S)n(C2CC2)c(O)c1C=NCc1ccc(F)cc1	-1.0	0.9	-4	1	-0.2	·	-52%	·
NC(=O)c1cn(C2CCCCC2)c2ccccc2c1=O	-0.3	0.2	1	-11	-4.0	·	5%	0.3
CC(Cc1ccccc1)NCCC(=O)NC(C)Cc1ccccc1 (centres undefined)	0.3	-2.3	-9	13	1.9	-3	-2%	1.5
COCCCNC(=O)c1c(N)n(Cc2ccco2)c2nc3ccccc3nc12	0.3	72*	21	-12	3.7	-9	?	-12

Additional entries follow:
SMILES	A1 inh	RanGTP-Impb inh	Calb FLC	T cruzi repl	LANA-H2A inh	Beta cell apopt	Vif A3G	AF4-AF9 inh
CCC1(C)CC(CCNCc2ccc(N(C)C)cc2)(c2ccc(F)cc2)CCO1 (centres undefined)	0.4	-6.1	-1	34	0.7	5	-1%	28*
COC(=O)C1=C(c2ccccc2OCc2ccccc2)C[C@@H]2CC[C@H]1N2C(=O)NCCN1CCOCC1	0.3	·	·	·	-4.0	-7	·	-0.4
O=C(NC(Cc1cnc[nH]1)C(=O)O)c1ccccc1 (centres undefined)	0.4	2.4	-6	-12	2.9	-5	-3%	1.4
COc1ccc(O)c(CN2CCCC(C(=O)c3sccc3C)C2)c1 (centres undefined)	0.0	-2.6	-15	-7	1.0	-4	?	5.8
O=C(c1cc(F)ccc1F)C1CCCN(Cc2ccc3nonc3c2)C1 (centres undefined)	0.6	1.4	27	0	-6.0	5	-8%	19
COc1cccc(C2=NOC(C(=O)N3CCC4(CC3)OCCO4)C2)c1 (centres undefined)	-7.3	-0.7	24	-16	1.3	-11	2%	·
COc1ccc(/C=C2\C(=N\O)C3CCN2CC3)cc1	0.0	0.0	3	-1	-1.7	·	-3%	·
Cc1nn(Cc2ccccc2)c(C)c1C(=O)OCC(=O)Nc1ccccc1SCC#N	-0.9	-6.1	?	7	-7.3	-5	29%	·
O[C@@H]1CCCN2CCc3c([nH]c4ccccc34)[C@H]12	0.3	0.2	-4	1	-0.9	-4	·	-0.2
CCOc1cc2c(cc1OCC)-n1cccc1C(c1ccc(F)c(OC)c1)NC2 (centres undefined)	-0.4	2.2	-1	30	0.3	-8	-10%	14
O=C1C2CCN(CC2)C12CC2c1ccc(C(F)(F)F)cc1 (centres undefined)	0.0	-3.0	-6	5	-7.4	1	5%	-2.4
OC1(c2ccc(F)cc2)CCNC1 (centres undefined)	0.1	-0.4	-4	0	1.0	-4	-7%	·
Fc1ccc(CNCCc2ccccc2F)cc1	0.3	-2.8	-7	5	3.0	-6	2%	-2.4
Cc1ccc(N2C(=O)/C(=C/N3CCN(C(=O)c4ccco4)CC3)C(=O)NC2=S)cc1C	0.1	4.3	9	-2	1.2	5	7%	·

Not all compounds are listed, so the mix of outcomes need not match the whole.
